Source: PubChem (several laboratories)
Mtb betalactam: beta-lactam sensitization of Mtb H37Rv, H37Rv | M. tuberculosis H37Rv growth with meropenem, percent inhibition; hits of this screen are not shown here | inhibition, % at 25 µM | hit rate 0.27% among 330,000 | AID 434955, 2010;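 active = about 74% or more and at least 40 points above the plate without the antibiotic, then above 30% in a dose series; inconclusive = first-round hits that could not be retested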;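 also: growth measured after seven days incubation then overnight dye step; 0% = bacteria only wells and 100% = bacteria with antibiotic; twin plates without the antibiotic show which effects depend on it; some results filed as inactive read as strong as hits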
Mtb H37Rv: M. tuberculosis H37Rv growth inhibitors, H37Rv strain (AID 1626). inhibition, % at 10 µM, or IC50 in µM where a hit was titrated. hit rate 0.95% among 220,000. M. tuberculosis H37Rv growth inhibition; higher % means a stronger effect;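 active = confirmed in a dose series; inconclusive = inhibition above 80% but not taken into the dose series; inactive = below 80% or under 30% at every dose of the series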;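 also: bacteria incubated seven days before Alamar blue readout; 0% = bacteria only wells and 100% = bacteria with antibiotic wells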
Arbovirus inh: antivirals against arbovirus infection, primary screen, cell-based, full library, 10K replicate subset; inhibition, % at 10 µM; AID 1251, 2008; hit rate 0.37% among 200,000; arbovirus infection cell-based antiviral screen;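 active = inhibition from about 30%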;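 also: bluetongue infection of BSR cells; cell survival read as ATP light after 72 h; 0% = infected wells without compound and 100% = uninfected wells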
RecA splice inh: Mtb RecA intein splicing inhibitors, primary screen, biochemical, fluorescence, HTS; cell-free RecA intein splicing; inhibition, %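 (about 9 µM by stock and volumes)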; hit rate 0.75% among 290,000; in the data active = inhibition above about 30%; inconclusive = no clear call, values can overlap the other calls;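 also: 0% = vehicle wells and 100% = reference inhibitor control wells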
Target sequence (P9WHJ3 whole entry, looked up, canonical isoform): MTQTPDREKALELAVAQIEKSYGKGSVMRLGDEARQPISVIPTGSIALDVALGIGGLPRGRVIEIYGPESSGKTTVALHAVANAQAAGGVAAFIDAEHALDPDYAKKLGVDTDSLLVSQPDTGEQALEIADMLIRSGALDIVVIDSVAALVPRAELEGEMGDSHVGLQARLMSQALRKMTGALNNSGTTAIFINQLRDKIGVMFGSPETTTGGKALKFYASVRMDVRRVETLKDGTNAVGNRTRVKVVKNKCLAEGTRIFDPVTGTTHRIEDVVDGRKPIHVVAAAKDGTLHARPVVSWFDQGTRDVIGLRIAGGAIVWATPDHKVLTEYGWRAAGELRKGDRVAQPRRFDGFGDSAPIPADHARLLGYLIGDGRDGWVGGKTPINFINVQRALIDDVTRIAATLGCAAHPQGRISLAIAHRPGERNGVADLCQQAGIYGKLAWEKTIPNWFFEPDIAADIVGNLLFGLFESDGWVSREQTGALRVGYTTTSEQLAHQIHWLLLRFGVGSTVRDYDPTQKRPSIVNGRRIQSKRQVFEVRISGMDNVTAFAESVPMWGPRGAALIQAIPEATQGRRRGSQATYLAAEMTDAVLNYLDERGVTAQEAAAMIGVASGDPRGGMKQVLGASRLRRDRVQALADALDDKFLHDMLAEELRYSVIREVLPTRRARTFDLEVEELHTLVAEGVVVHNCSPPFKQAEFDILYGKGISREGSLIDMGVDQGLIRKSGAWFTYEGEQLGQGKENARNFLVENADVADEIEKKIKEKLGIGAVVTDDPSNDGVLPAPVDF
YopH inh: YopH tyrosine phosphatase inhibitors, primary screen, biochemical, fluorescence Ex485/Em525 | inhibition, %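 (about 10 µM by stock and volumes)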 | hit rate 0.16% among 140,000 | AID 898, 2007;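 active = inhibition of 50% or more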;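 also: controls were vehicle for no effect and minimum signal wells for full effect; inactives centre near -20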
Arbovirus inh repeat: second read-out of Arbovirus inh, no call of its own (marks repeat the call); inhibition, %; measured here: 10K subset replicate screen; many hits read low in the repeat;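 first of two repeat runs on a subset; 0% = infected and 100% = uninfected wells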
* marks the source's active call; other numbers are inactive results; ? = inconclusive; . = no result given. An excerpt; count on the stated rates, not on these rows.

Start of the data: the first 2 records, ahead of the listing:
SMILES | Mtb betalactam | Mtb H37Rv | Arbovirus inh | RecA splice inh | YopH inh | others
CNC(=S)N(C)CCc1cc2c(c(OC)c1C=C1C(=O)NC(=O)NC1=O)OCO2 | -10 | -7% | . | -1.8 | .
Nc1c2c(nc3ccc(Br)cc13)N(c1ccccc1)CC2 | 16 | 14% | 8 | . | -14

The list itself, repeating the preview:
SMILES | Mtb betalactam | Mtb H37Rv | Arbovirus inh | RecA splice inh | YopH inh | others
CNC(=S)N(C)CCc1cc2c(c(OC)c1C=C1C(=O)NC(=O)NC1=O)OCO2 | -10 | -7% | . | -1.8 | .
Nc1c2c(nc3ccc(Br)cc13)N(c1ccccc1)CC2 | 16 | 14% | 8 | . | -14
CC(C)(C)C(=O)COC(=O)c1cc(S(=O)(=O)N2CCCCC2)ccc1N1CCOCC1 | -3 | . | . | 3.4 | .
Cc1cc(C)nc(SCC(=O)c2cc3ccccc3oc2=O)n1 | -5 | -4% | 1 | -0.2 | 29
CC(C)[C@H]1C(=O)Nc2ccccc2N1C(=O)N[C@@H](Cc1ccccc1)C(=O)N[C@@H](Cc1ccccc1)C(=O)O | -1 | . | . | 17 | .
CCCNC(=O)Cn1cnc2sc(C(=O)Nc3ccc4c(c3)OCO4)c(C)c2c1=O | -3 | -1% | 0 | -0.9 | -3
Cc1cc(S(=O)(=O)N2CCOCC2)ccc1F | -7 | -4% | -1 | 0.7 | -24
CC(C)COC(=O)N1CCCC1C(=O)O (stereo not given) | 6 | -6% | -2 | 0.3 | -15
FC(F)(F)c1nc(N2CCCC2)ncc1-c1nnnn1-c1ccc(Cl)cc1 | 8 | -8% | -17 | 11 | -13
O=C(O)Cc1sc(NCc2ccco2)nc1-c1ccccc1 | -1 | 9% | . | -1.4 | .
O=C(O)C1CC=C(Cl)CC1C(=O)NCC1OCCc2ccccc21 (stereo not given) | -11 | -16% | 6 | -4.2 | -49
CC(=O)/C(=N/Nc1ccc([N+](=O)[O-])cc1)N1CCCc2ccccc21 | 19 | -3% | . | -1.5 | .
CN1C(=O)CC(=O)N(C)c2cc(S(=O)(=O)N(C)Cc3ccccc3)ccc21 | -2 | . | . | 5.6 | .
COCCn1c(Sc2ccccc2)nc2c1c(=O)[nH]c(=O)n2C | -9 | -5% | 6 | 0.1 | -35
CCOC(=O)c1oc2ccccc2c1CN1CCN(C(=O)c2ccccc2)CC1 | -1 | 2% | 3 | 0.7 | -27
O=C(CSc1nc2ncccc2[nH]1)Nc1ccc2c(c1)OCO2 | -14 | 0% | . | -0.6 | .
CC(Oc1cc(F)ccc1[N+](=O)[O-])C(=O)N(C)CC(=O)Nc1ccccc1C(F)(F)F (stereo not given) | -6 | 0% | 8 | -0.1 | .
O=C(NCC1CCCO1)C(c1ccco1)N(Cc1ccc(F)cc1)C(=O)CN1C(=O)c2ccccc2S1(=O)=O (stereo not given) | -1 | . | . | 0.5 | .
CC(=O)c1c(C)[nH]c(C(=O)CSc2nnc(CN3CCCCCC3=O)n2-c2ccccn2)c1C | -3 | -2% | 6 | 7.1 | 0
COCCN1CCN(C(=O)c2ccc3nc(Cc4ccccc4F)oc3c2)CC1 | -20 | . | . | -0.7 | .
S=c1[nH]nc(-c2ccc3ccccc3n2)n1-c1ccc(Cl)cc1 | 8 | 15% | 1 | 1.3 | 1
Cc1cccc(OCC(=O)NS(=O)(=O)c2ccc(Br)cc2)c1 | -7 | . | . | -2.2 | .
CC1CCc2c(sc3c2C2=NS(=O)(=O)CCN2C=N3)C1 (stereo not given) | -14 | -1% | 1 | -4.0 | 15
CC(=O)Nc1ccc(S(=O)(=O)NCc2nc(-c3ccccc3C)no2)cc1 | 0 | . | . | -0.2 | .
C=C(C)C(=O)Nc1cccc(C2=NOC3(C2)C[C@@H](C(N)=O)N(C(=O)c2ccc(OC)cc2)C3)c1 (stereo not given in full) | 0 | -8% | . | 1.3 | .
Following part:
SMILES | Mtb betalactam | Mtb H37Rv | Arbovirus inh | RecA splice inh | YopH inh | others
Cc1ccc(CNC(=O)CCC(=O)Nc2nnc(C)s2)cc1 | 7 | . | . | 1.8 | .
Cc1nnsc1C(=O)Nc1cccc(Cl)c1 | -6 | -3% | -1 | -0.1 | .
COc1ccc(OC)c(C2CC(=O)N3CN(c4ccccc4F)CSC3=C2C#N)c1 (stereo not given) | -3 | 4% | 8 | -1.7 | -18 | Arbovirus inh repeat=-3
COC(=O)c1c(-c2ccccc2)csc1N | 3 | 0% | -10 | 6.9 | -2
CC#CCC(CC#CC)c1nc2ccccc2c(=O)n1N | -3 | -5% | -3 | 1.3 | -25
O=S(=O)(c1ccccc1)N1CCN(C(=S)Nc2ccccc2)CC1 | -3 | . | . | -1.4 | .
Cc1ccc(-c2cn(-c3ccccc3)c(=S)[nH]2)cc1C | 8 | . | . | 4.4 | .
CCCCNC(=O)Nc1nc(SCC(=O)OCC)n[nH]1 | 95 | ? | 0 | -1.4 | .
Nc1ccccc1C(=O)OC1CSC1 | 9 | -2% | 6 | -2.5 | -25
CCOC(=O)C1=C(C)NC(C)=C(C(=O)OCC)C1C(=O)O | -3 | -7% | -2 | -1.2 | -16 | Arbovirus inh repeat=-4
CCOC(=O)[C@@H]1[C@H]2COc3cc(OC)ccc3[C@H]2N2C(=O)N(c3ccc(F)cc3)C(=O)[C@]12C | -7 | . | . | 3.1 | .
Cc1nc(SCC(=O)Nc2nnc(C(C)C)s2)n[nH]1 | 10 | . | . | -2.8 | .
O=C(CSC(=S)N1CCCCC1)N1N=CCC1c1ccccc1 (stereo not given) | 10 | 2% | 6 | -0.9 | -5
O=C1/C(=C/c2ccc([N+](=O)[O-])cc2)Oc2cc(O)ccc21 | -2 | . | . | -129 | .
O=C(Nc1ccccc1F)C1CCCN(S(=O)(=O)c2cccc3cccnc23)C1 (stereo not given) | ? | -1% | 4 | -0.7 | -39 | Arbovirus inh repeat=-1
CCCC(=O)N1CCC(CCC(=O)NC2CC2)CC1 | -14 | . | . | 0.2 | .
COc1ccc(C(=O)Oc2cc(C(=S)N3CCOCC3)ccc2OC)cc1 | 1 | . | . | 1.9 | .
C=CCn1cccc(C(=O)Nc2ccc(OC)cc2OC)c1=O | 7 | 4% | 11 | -3.4 | .
Cc1cc2nc(C3CCN(Cc4nnnn4Cc4cccs4)CC3)[nH]c2cc1C | 41 | -1% | -19 | 2.1 | -19
COc1ccccc1NC(=S)NC(=O)C(C)(C)C | -4 | 7% | 3 | 0.7 | -22
N#CC1=C(N)C(C#N)(C#N)[C@H](c2cccnc2)[C@H]2CN(C(=O)OCc3ccccc3)CC=C12 | 0 | -2% | 0 | 29 | -29
Cc1ccc(C2=Nc3cccnc3C(c3ccccc3)=NN2)cc1 | 10 | -7% | 5 | -1.2 | .
Cc1cc(-c2nn(-c3ccccc3F)cc2CN2CCC(C(N)=O)CC2)c(C)s1 | -14 | 10% | -1 | -1.5 | .
CCOc1ccc(S(=O)(=O)NCCCl)cc1 | -9 | -4% | 17 | 2.9 | .
[C-]#[N+][C@H](O[C@@H]1O[C@H](CO)[C@@H](O)[C@H](O)[C@H]1O)c1ccccc1 | -2 | -8% | . | -1.9 | .
The results go on.
SMILES | Mtb betalactam | Mtb H37Rv | Arbovirus inh | RecA splice inh | YopH inh | others
O=C(CSc1nnc(-c2ccc(F)cc2)c2ccccc12)NCC1CCCO1 (stereo not given) | 12 | 3% | 7 | 7.6 | .
CCN(C(=O)CSc1nnc(C)n1Cc1ccccc1)C1CCS(=O)(=O)C1 (stereo not given) | 0 | 3% | -2 | 0.5 | .
Cc1onc(-c2ccccc2)c1C(=O)N1CC(C)OC(C)C1 (stereo not given) | -3 | 0% | 6 | 1.8 | -30
CCCOc1ccc(N2C(=O)CC(N(CCc3ccc(OC)c(OC)c3)C(=S)Nc3ccccc3)C2=O)cc1 (stereo not given) | 21 | 40% | -12 | -2.1 | -21
CCc1ccccc1NC(=O)CSc1ccsc1[N+](=O)[O-] | -2 | -1% | -4 | -2.4 | -18
CCc1nnc(NC(=O)C2=NN(C3CCS(=O)(=O)C3)C(=O)CC2)s1 (stereo not given) | -2 | -4% | -14 | -0.7 | .
CC1(C)CC(=O)C(C=Nc2ccc3cn[nH]c3c2)=C(O)C1 | -7 | 71% | 4 | 4.1 | -21
CCS(=O)(=O)Nc1cccc(-c2cc(-c3ccccc3)c3cc(C)ccc3n2)c1 | 99 | 6µM* | -31 | 13 | -8
Cc1nc(Nc2cccc(C(C)O)c2)c2nnn(Cc3ccccc3F)c2n1 (stereo not given) | 1 | -1% | 0 | 0.7 | .
O=S(=O)(c1ccc(F)cc1)N1CCc2ccccc21 | -4 | . | . | 1.3 | .
CN(C)CCNC(=O)c1c(NC(=O)c2ccccc2)sc2c1CCCC2 | 4 | . | . | 0.0 | .
Cc1cccc2sc(NC(=O)c3ccc(OCC4CCCO4)cc3)nc12 (stereo not given) | -5 | 3% | 1 | -1.5 | .
COc1ccc(-c2ncncc2-c2csc(C)n2)c(O)c1OC | -1 | 8% | 9 | 1.8 | 8
CC(=O)Nc1cccc(-c2cc(-c3c(Cl)cccc3Cl)no2)c1 | -3 | 7% | . | 8.0 | .
COc1ccc(NC(=O)CS(=O)CC(=O)Nc2cccc3cccnc23)cc1 (stereo not given) | 8 | . | . | 0.9 | .
N#CC1(NC(=O)CSc2nnc(-c3ccccc3F)o2)CCCCC1 | -1 | . | . | -1.8 | .
COc1cc(NC(=O)c2cccc(Br)c2)nc(OC)n1 | 2 | 2% | -6 | 0.6 | .
COC(=O)c1cc(NC2c3ccccc3C(=O)N2Cc2ccco2)cc(C(=O)OC)c1 (stereo not given) | 0 | 3% | -5 | . | -36
O=C(NCCc1ccccc1)C1CCN(C2CCN(C(=O)CC3=CCCCC3)CC2)CC1 | -4 | 0% | 3 | -1.2 | .
O=C(NC(NC(=S)Nc1ccccc1Cl)C(Cl)(Cl)Cl)c1cccc(Cl)c1 (stereo not given) | 9 | -8% | -38 | 14 | -37
O=C(NCCc1ccccc1)c1ccc(CS(=O)(=O)Cc2ccccc2F)o1 | -6 | -3% | 5 | -1.0 | 6
COc1ccc(OC)c(NC(=O)c2cc3ccccc3cc2OC)c1 | 24 | . | . | 4.0 | .
Cc1nc(NC2CCCC2)sc1C(=O)N(C)C | -3 | -7% | 2 | 2.1 | -13
CCCC(=O)NC(=S)Nc1ccccc1C(F)(F)F | ? | 5% | -2 | -1.3 | -15
c1ccc(COc2ccc(CNCc3cccnc3)cc2)cc1 | -5 | 6% | -13 | 4.0 | .

In the list so far, five contain a furan ring, fused or not.
SMILES | Mtb betalactam | Mtb H37Rv | Arbovirus inh | RecA splice inh | YopH inh | others
O=C(O)Cc1sc(NCc2ccco2)nc1-c1ccccc1 | -1 | 9% | . | -1.4 | .
CCOC(=O)c1oc2ccccc2c1CN1CCN(C(=O)c2ccccc2)CC1 | -1 | 2% | 3 | 0.7 | -27
O=C(NCC1CCCO1)C(c1ccco1)N(Cc1ccc(F)cc1)C(=O)CN1C(=O)c2ccccc2S1(=O)=O (stereo not given) | -1 | . | . | 0.5 | .
COC(=O)c1cc(NC2c3ccccc3C(=O)N2Cc2ccco2)cc(C(=O)OC)c1 (stereo not given) | 0 | 3% | -5 | . | -36
O=C(NCCc1ccccc1)c1ccc(CS(=O)(=O)Cc2ccccc2F)o1 | -6 | -3% | 5 | -1.0 | 6

Next results follow:
SMILES | Mtb betalactam | Mtb H37Rv | Arbovirus inh | RecA splice inh | YopH inh | others
CC(=O)Nc1ccc(-c2csc(NC(=O)CCCc3cccs3)n2)cc1 | 6 | 4% | -16 | -1.8 | -33
C[N+]12CCC(CC1)C(C(O)(c1cccc(Cl)c1)c1cccc(Cl)c1)C2 (stereo not given) | -6 | 13% | . | 1.4 | .
CCCCN(Cc1ccccc1)C1CCN(Cc2ccccc2)CC1 | -6 | . | . | 0.1 | .
O=C1C(Nc2ccc(O)cc2)=C/C(=N/S(=O)(=O)c2cccs2)c2ccccc21 | . | -6% | -36 | 96* | .
Cc1ccc(S(=O)(=O)N2CCOC23CCN(C(=O)c2cc(Cl)ccc2Cl)CC3)cc1 | 1 | . | . | 13 | .
COc1ccc(/C=C/C(=O)Nc2cccnc2Cl)cc1 | -5 | . | . | -0.3 | .
CCN(CC)S(=O)(=O)c1cc(NC(=O)c2n[nH]c(=O)c3ccccc23)ccc1C | 13 | 9% | -1 | 0.4 | .
CC1(C)OC(=O)C(=NNc2ccccc2C(=O)O)C(=O)O1 | 12 | 3% | . | 1.4 | .
O=c1c2c(-c3cccs3)csc2ncn1-c1ccc(Br)cc1 | 100 | 23% | -7 | 0.1 | 14
CCC(=NCCc1c(C)[nH]c2ccc(OC(F)(F)F)cc12)C1=C(O)CC(c2ccccc2)CC1=O (stereo not given) | 4 | -5% | -13 | -1.8 | .
Cc1cccc(C)c1NC(=O)COC(=O)c1cccc2c1C(=O)c1ccccc1C2=O | -9 | 1% | -2 | -0.1 | -27
